HPGD inh: inhibitors of human 15-hydroxyprostaglandin dehydrogenase (HPGD) | Potency, µM, without a hit: at the top dose activity change, negative = inhibition, hits mostly inhibitors | purified HPGD, NADH fluorescence kinetic, PGE2 substrate | P15428 | actives 4.3% (n = 150,000); active = well fitted inhibition curve with a large enough effect (not every such curve was filed as active); inconclusive = small, poorly fitted or top-dose-only effect, or another doubt; inactive = no such curve, though single readings can be large or run the other way;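 also: top concentration of the series not given in the record; plate controls included wells without enzyme; inactives centre near -10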
Target sequence (P15428 whole entry, looked up): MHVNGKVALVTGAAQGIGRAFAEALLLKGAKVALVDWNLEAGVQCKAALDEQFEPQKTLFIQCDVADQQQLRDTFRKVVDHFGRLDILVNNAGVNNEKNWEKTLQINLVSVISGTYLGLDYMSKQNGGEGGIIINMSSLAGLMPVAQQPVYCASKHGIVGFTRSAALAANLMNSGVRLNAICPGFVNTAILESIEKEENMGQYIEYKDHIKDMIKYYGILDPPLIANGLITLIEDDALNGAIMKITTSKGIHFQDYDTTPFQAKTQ
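20 nM HPGD preincubated 15 min at room temperature with compound in 50 mM Tris-HCl pH 8, 0.01% Tween 20. Started with 1 mM NAD+ and 30 uM prostaglandin E2; NADH fluorescence (360/450 nm) read 5 times over 30-s intervals, last minus first.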
* = called active by the depositor; ? = inconclusive; & = joins results of further samples. % is scaled to controls: 0 for no effect and ±100 for the full control effect; potency is read from the fitted curve at half-maximal effect. Some of the compounds tested; the hit share may differ from the screen's.

The first six compounds, ahead of the listing:
| Structure | HPGD inh |
| --- | --- |
| Cn1c(=O)c2c(SCC(=O)c3ccccc3)nc(C3CC3)nc2n(C)c1=O | -8% |
| Cc1ccc(CNC(=O)Cc2ccc(-c3ccccc3)cc2)cc1 | -8% |
| Cc1ccc(OCCOc2cccc(Br)c2)c([N+](=O)[O-])n1 | ? |
| O=C(Nc1ccccc1C(=O)NC(Cc1c[nH]c2ccccc12)C(=O)O)c1ccco1 (stereo not drawn) | -14% |
| CCCc1nnc(SCC(=O)N2C(C)CCCC2C)n1CCCOC (stereo not drawn) | -1% |
| COc1ccc(C2CC(c3ccccc3)=NN2C(=O)COC(=O)c2cccnc2Cl)cc1 (stereo not drawn) | ? |

All compounds of this part, repeating the preview:
| Structure | HPGD inh |
| --- | --- |
| Cn1c(=O)c2c(SCC(=O)c3ccccc3)nc(C3CC3)nc2n(C)c1=O | -8% |
| Cc1ccc(CNC(=O)Cc2ccc(-c3ccccc3)cc2)cc1 | -8% |
| Cc1ccc(OCCOc2cccc(Br)c2)c([N+](=O)[O-])n1 | ? |
| O=C(Nc1ccccc1C(=O)NC(Cc1c[nH]c2ccccc12)C(=O)O)c1ccco1 (stereo not drawn) | -14% |
| CCCc1nnc(SCC(=O)N2C(C)CCCC2C)n1CCCOC (stereo not drawn) | -1% |
| COc1ccc(C2CC(c3ccccc3)=NN2C(=O)COC(=O)c2cccnc2Cl)cc1 (stereo not drawn) | ? |
| O=C(N/N=C/C=C/c1ccccc1)c1cnccn1 | -12% |
| COc1nc2ccc(C)cc2cc1-c1noc(-c2cccnc2)n1 | -21% |
| Cc1ccc(CSc2nnc(-c3cccc(S(=O)(=O)N4CCOCC4)c3)n2C2CCCC2)cc1 | -8% |
| CCn1c(NCc2ccc3c(c2)OCO3)nc2ccccc21 | -1% |
| Cc1cc(C)n(-c2nnc(C)c(=O)[nH]2)n1 | -7% |
| COCCn1c(C(=O)N2CCCC2)cc2c1C[C@H]1CN(C(=O)c3ccccc3)[C@@](Cc3ccccc3)(C(=O)OC)[C@@H]21 | 0% |
| Cc1ccc(S(=O)(=O)N(C)c2ccc(NS(C)(=O)=O)cc2)cc1 | -10% |
| COc1ccc(-n2c(C)nc3c(cnn3-c3ccccc3)c2=O)cc1 | -3% |
| CCc1cc2c(=O)n(N)c(CCC(=O)O)nc2s1 | -8% |
| CCn1cc(/C=N/NC(=O)c2cc3c(ccc4ccccc43)o2)c2ccccc21 | ? |
| OC[C@@H]1O[C@@H](n2cnc3c(SCc4ccccc4)ncnc32)[C@@H](O)[C@H]1O | -4% |
| CCC1=NC(c2ccc(OC)cc2OC)N(O)C1(C)C (stereo not drawn) | -11% |
| Cn1c(SCC(=O)c2ccccc2F)nnc1C1CC1 | -9% |
| COc1ccc(Nc2nc3c(c(=O)n(C)c(=O)n3C)n2CCO)cc1 | -7% |
| COc1ccc(OC)c(NC(=O)Nc2nnc(N3CCC(C)CC3)s2)c1 | -10% |
| O=C(NCc1cccs1)c1cccc(S(=O)(=O)N2CCCCC2)c1 | -10% |
| CN(C)C(=O)/C(=C/c1cn(-c2ccccc2)nc1-c1cccc([N+](=O)[O-])c1)NC(=O)c1ccccc1 | -5% |
| CC(=NC1CCN(Cc2ccccc2)CC1)c1c(O)[nH]c(=O)[nH]c1=O | -14% |
| COc1ccc(N/N=C(/C(N)=O)C2=NC(C)(C)Cc3ccccc32)cc1 | -21% |
| Cc1ccc2c(=O)c3ccccc3n(CCCN)c2c1C | ? |
| Cc1ccc2nc3ccc(N4CCCCCCC4)nn3c(=O)c2c1 | -27% |
| O=C(N/N=C/c1ccc2c(c1)OCO2)C(O)c1ccccc1 (stereo not drawn) | ? |
| CC(C)c1ccc(/C=N\NC(=O)c2ccc(Cn3cccn3)o2)cc1 | -5% |
| CC(=O)N1CCc2cc(S(=O)(=O)CCC(=O)Nc3c(C)n(C)n(-c4ccccc4)c3=O)ccc21 | 7% |
| CN(C)S(=O)(=O)c1cc(NC(=O)COC(=O)C2CSC3(C)CCC(=O)N23)ccc1Cl (stereo not drawn) | -3% |
| Nc1ccc(S(=O)(=O)Nc2ccc(S(N)(=O)=O)cc2)cc1 | -9% |
| COC(=O)c1ccc(C(NC(=O)OCc2ccccc2)/C(F)=C/[C@@H](C)C(=O)NCc2cccnc2)cc1 (stereo partly drawn) | -8% |
| CC(O)c1n(C)c(Cl)c[n+]1C (stereo not drawn) | 3% |
| CC(C)(C)c1nnc(NC(=O)c2cc(-c3ccccc3)nc3ccccc23)s1 | ? |
| CCCCc1c(O)nc(SCCN(C)C)n(-c2ccccc2)c1=O | -10% |
| COc1ccccc1S(=O)(=O)Cc1ccc(C(=O)NCc2cccs2)o1 | -11% |
| COc1ccc(S(=O)(=O)N2CCOCC2)cc1NC(=O)Cc1ccccc1Cl | -9% |
| CCOC(=O)c1cc(NC(=O)C2CCCO2)cc(C(=O)OCC)c1 (stereo not drawn) | -9% |
| CCCNC(=O)NC(=O)CN1C(=O)NC(C)(c2ccc(C)cc2)C1=O (stereo not drawn) | -14% |
| CN1CCCC(OC(=O)CCCC(=O)OC2CCCN(C)C2)C1 (stereo not drawn) | -7% |
| CN=C(N)NCCCC(N)C(=O)O (stereo not drawn) | -7% |
| CCOC(=O)c1c(NC(=O)CSc2nc3nc(C)cc(C)n3n2)sc(CC)c1C | -17% |
| NS(=O)(=O)c1ccc(NC(=O)NC2CCCCC2)cc1 | -7% |
| COc1cc2c(C#N)c(N3CCc4ccccc4C3)nc(N)c2c(N)n1 | ? |
| Cn1c(SCCOc2cccc(Cl)c2)nnc1-c1ccncc1 | -16% |
| COc1cc(C(=O)N2CCCc3ccccc32)cc(OC)c1OC | -10% |
| C[N+]1(CCCCC[N+]2(C)CCCC2)CCCC1 | -6%&-9%&3% |
| COc1ccc(CCNC(=O)C23CN(Cc4ccccc4)CC2C(c2cccc([N+](=O)[O-])c2)=NO3)cc1 (stereo not drawn) | -25% |
| Cc1onc(-c2c(Cl)cccc2Cl)c1C(=O)Nc1c(C)n(C)n(-c2ccccc2)c1=O | -10% |
| CC1=Nn2c(nnc2-c2ccccc2Cl)SC1 | 25µM* |
| Cc1cc2ncn(CCOc3ccccc3C#N)c2cc1C | -22% |
| O=C(CN1CCOc2ccccc21)NCc1ccccc1 | -8% |
| COC(=O)C(C)NC(=O)c1ccc(C(C)(C)C)cc1 (stereo not drawn) | -15% |
| COC(=O)Nc1ccc2ncn(C)c(=O)c2c1 | -14% |
| COc1cccc(C(=O)N(CN2CCCC2=O)c2cccc(Cl)c2)c1 | -12% |
| COc1cc(S(=O)(=O)NC2CCCC2)ccc1F | -19% |
| Cc1ccc(/C([O-])=C(/C(=S)NCc2ccco2)[n+]2ccccc2)cc1 | -11% |
| CC(C)(C)c1ccc(C(=O)NCc2ccc(Cl)cc2)cc1 | -3% |
| O=C1CCc2cc(S(=O)(=O)NC(Cc3ccccc3)C(=O)NC3CCCC3)ccc2N1 (stereo not drawn) | 0% |

(continued)
| Structure | HPGD inh |
| --- | --- |
| CC(C)CC(NC(=O)C1CCC(C)CC1)C(=O)Nc1ccccn1 (stereo not drawn) | -3% |
| CN(C)c1ccc(CN2CCCCCC2)cc1 | -11% |
| COc1ccc(-c2nnn(CCc3nn[nH]n3)n2)cc1OC | -10% |
| COc1cc(OC)cc(-n2nc(C(=O)N3CC(C)CC(C)C3)c3ccccc3c2=O)c1 (stereo not drawn) | -13% |
| Cc1ccc(S(=O)(=O)CCC(=O)OCc2ccc(Cl)c(Cl)c2)cc1 | -14% |
| COc1ccccc1C(=O)Nc1ccc(NC(=O)c2ccco2)c(C)c1 | -16% |
| COC(=O)c1cc2ccsc2n1Cc1nc(-c2ccc(Cl)cc2)oc1C | -9% |
| CCCNC(=O)c1c(N)n(-c2ccc3c(c2)OCO3)c2nc3ccccc3nc12 | -20% |
| O=C(Nc1ccc(N2CCOCC2)c(Cl)c1)c1cc(F)c(F)cc1Cl | -11% |
| CCc1ccc(S(=O)(=O)NC(CC(=O)O)c2ccccc2)cc1 (stereo not drawn) | -10% |
| CCOC(=O)C1CCN(CCC(=O)Nc2ccccc2)CC1 | 0% |
| COc1cccc(C(=O)N/N=C2\SCC(=O)N2Cc2ccc3c(c2)OCO3)c1 | -23% |

Next part, overlapping the part above by three compounds.
| Structure | HPGD inh |
| --- | --- |
| CCc1ccc(S(=O)(=O)NC(CC(=O)O)c2ccccc2)cc1 (stereo not drawn) | -10% |
| CCOC(=O)C1CCN(CCC(=O)Nc2ccccc2)CC1 | 0% |
| COc1cccc(C(=O)N/N=C2\SCC(=O)N2Cc2ccc3c(c2)OCO3)c1 | -23% |
| Cc1nc(CN2CCOCC2)cc(=O)[nH]1 | -4% |
| CCOC(=O)C1CCN(C(=O)CN(c2cccc(OC)c2)S(=O)(=O)c2ccccc2)CC1 | -6% |
| C(=C\c1nc(-c2ccccc2)no1)/c1ccccc1 | -7% |
| CCOC(=O)c1ccc(NC(=O)CN2C(=O)CSC(C)C2=O)cc1 (stereo not drawn) | -4% |
| O=C(C[n+]1cc(-c2ccccc2)n2c1CCC2)N1c2ccccc2Sc2ccccc21 | 1% |
| COCCN(C(=O)Cn1nnc2ccccc21)C(C(=O)NC1CCCC1)c1ccc(OC)cc1OC (stereo not drawn) | 1% |
| C/C(Cl)=C/CSc1nc2c(c(=O)[nH]c(=O)n2C)n1C(C)C | -12% |
| COc1ccc(C(=O)NC2CCN(CC(=O)Nc3cccc(C)c3)CC2)cc1OC | -5% |
| COc1ccc(-c2cc(-c3n[nH]c(=S)n3-c3ccccc3OC)[nH]n2)cc1 | 11µM* |
| O=C(O)C(CCCCN1C(=O)C2C3C=CC(C3)C2C1=O)N1C(=O)C2C3C=CC(C3)C2C1=O (stereo not drawn) | -7% |
| O=C(C1Cc2ccccc2CN1S(=O)(=O)c1cccs1)N1CCCCC1 (stereo not drawn) | -15% |
| COc1ccc(/C=C2\SC(=O)N(CC(=O)NNC(=O)c3ccccc3O)C2=O)cc1OC | ? |
| COC(=O)c1cc2c(C)c(C)c3ccccn3c-2c1C(=O)OC | -6% |
| O=C1COc2ccc(C(=O)CSc3nnc(-c4cccs4)n3Cc3ccccc3)cc2N1 | -24% |
| CCS(=O)(=O)N1CCC(C(=O)NCCCN2CCCCCC2)CC1 | 9% |
| Cn1c(CC(=O)Nc2ccccc2)nnc1SCCOc1ccccc1 | -3% |
| CCOC(=O)C1CCCN(Cc2ccccc2OCC)C1 (stereo not drawn) | -8% |
| CNc1nc(-c2ccccc2Cl)nc2ccccc12 | -6% |
| COc1cc(C#CC#CCN2CCCCC2)ccc1O | 14µM* |
| NNc1nc2sc3c(c2c(=O)[nH]1)CCc1ccccc1-3 | -20% |
| COc1cc(OC)c2c(c1)OC(=O)CC2c1ccc(C)cc1 (stereo not drawn) | -7% |
| CN1OC(CC(=O)O)N(c2ccc(Cl)cc2)C1=O (stereo not drawn) | -6% |
| Cc1c(NC(=O)c2cc(C3CC3)on2)c(=O)n(-c2ccccc2)n1C | -11% |
| Cc1ccc2c3c1C(=O)C(=O)N3C(C)(C)CC2C (stereo not drawn) | -4% |
| Cc1cc(C(=O)OCC(=O)NCCC(C)C)c2ccccc2n1 | ? |
| O=C(/C=C/NNC(=O)c1ccccc1)c1ccc(Br)cc1 | -23% |
| Cn1c(=O)c2c(SCc3ccccn3)nc(C3CC3)nc2n(C)c1=O | -6% |
| Fc1ccc(-n2cc(-c3ccccc3)c3c(NN4CCOCC4)ncnc32)cc1 | -6% |
| COc1ccc2cc3cc(C(=O)NCc4cccs4)oc3nc2c1 | ? |
| CC(C)(C)C1CCc2c(sc(NC(=O)c3cc(C4CC4)on3)c2C#N)C1 (stereo not drawn) | ? |
| CN(C)c1ccc(-c2ccccc2)nn1 | -18% |
| COc1ccccc1NC(=O)C(C)Sc1nnnn1C (stereo not drawn) | -4% |
| Cc1ccc2cccc(NC(=S)NC(=O)c3ccn(C)n3)c2n1 | -4% |
| O=c1cc(-c2ccccc2)[nH]n1-c1nc2ccccc2s1 | -9% |
| Cn1c(SCC(=O)Nc2ccccc2F)nnc1-c1ccc(S(=O)(=O)N2CCOCC2)cc1 | -15% |
| O=c1c2ccccc2sc2c(CO)ccc(NCCN3CCCCC3)c12 | -14% |
| Cn1cc(Br)cc2nc(C(F)(F)F)nc1-2 | -5% |
| Cc1ccc(-c2cccc(-c3cc(=O)oc4ccc(C(C)(C)C)cc34)c2)cc1 | -6% |
| CCOc1ccccc1N1CCN(C(=O)c2ccncc2)CC1 | 1% |
| CCn1c(CNc2ccc(F)cc2)nnc1SCC(=O)Nc1ccccc1OC | -26% |
| O=C(c1ccc(CS(=O)(=O)c2cccc(C(F)(F)F)c2)o1)N1CCN(c2ccccn2)CC1 | -7% |
| COc1ccc(NC(=S)NCCc2c[nH]c3ccc(OC)cc23)c(OC)c1 | -12% |
| Cc1ccc(-c2nc(N/N=C/c3ccncc3)c3ccccc3n2)cc1 | -24% |
| COc1ccc(NC(=O)Cc2c(Sc3ccccc3)c3ccccc3n2C)cc1 | -11% |
| O=C(CCc1[nH]c2ccccc2c1Sc1ccccc1)N(CCO)CCO | -9% |
| N#CC(Cc1ccc(O)c(O)c1)C(=O)N1CCc2ccccc21 (stereo not drawn) | 28µM* |
| CCOC(=O)NCc1ccc(S(=O)(=O)Nc2c(C)cccc2C)cc1 | 2% |
| CCOC(=O)c1c(NC(=O)COC(=O)CCS(=O)(=O)c2ccc(C)cc2)sc(C)c1C | -20% |
| COc1ccccc1NC(=O)N(Cc1ccco1)Cc1cc2ccc(C)c(C)c2[nH]c1=O | -28% |
| COc1ccc(C(C(=O)OCCN(C)C)c2ccccc2)cc1 (stereo not drawn) | -11% |
| CCOC(=O)c1cnn(C(=O)c2ccccc2)c1N | ? |
| O=C(Oc1ccc(OC(=O)N2CCOCC2)cc1)c1ccccc1 | -9% |
| Cc1cc(C)nc(SCc2nnc(SCC(=O)N3CCOCC3)o2)n1 | -6% |
| O=C(NC(=S)N1CCN(C(c2ccccc2)c2ccccc2)CC1)c1ccc(S(=O)(=O)N2CCOCC2)cc1 | -10% |
| CCC1(CC)Cc2ccccc2-c2nc3ccccc3c(=O)n21 | -19% |
